VDR inhibitor – Inhibitors of the vitamin D receptor (VDR): qHTS | VDR-SRC2-3 peptide fluorescence polarization, 2 h | Potency, µM, without a hit: max response, negative = inhibition, most hits filed as inhibitors | actives 0.93% (n = 400,000) | AID 504847, 2011; active = well fitted inhibition curve with a large enough effect; inconclusive = small, poorly fitted or top-dose-only effect, or another doubt; inactive = no such curve, though single readings can be large or run the other way; also: series mostly up to about 120 µM
Target sequence (P11473 whole entry, looked up): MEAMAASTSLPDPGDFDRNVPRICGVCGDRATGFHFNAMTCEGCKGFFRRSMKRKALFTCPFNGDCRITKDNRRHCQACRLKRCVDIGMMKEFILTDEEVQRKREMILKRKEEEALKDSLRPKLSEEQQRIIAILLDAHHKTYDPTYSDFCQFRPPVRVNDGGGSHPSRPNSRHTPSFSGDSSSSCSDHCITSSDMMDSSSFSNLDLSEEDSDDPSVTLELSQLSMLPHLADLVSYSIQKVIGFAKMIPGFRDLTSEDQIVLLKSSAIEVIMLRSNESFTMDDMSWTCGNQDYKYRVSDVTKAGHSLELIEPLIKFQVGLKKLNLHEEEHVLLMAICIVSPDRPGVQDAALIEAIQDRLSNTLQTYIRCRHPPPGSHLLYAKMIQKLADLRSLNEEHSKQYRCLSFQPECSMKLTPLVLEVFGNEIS
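Fluorescence polarization assay measuring small-molecule disruption of VDR binding to the coregulator peptide SRC2-3. Compounds were pin-transferred (23 nl) into the reagent mix and incubated 2 h at room temperature before reading.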
An asterisk follows results filed as active; ? = inconclusive; [ ] = dose if it differs, or a comment. % is scaled to controls: 0 for no effect and ±100 for the full control effect; potency is read from the fitted curve at half-maximal effect. This is a subset, so the mix of outcomes need not match the whole.

SMILES,VDR inhibitor
C=CCC[C@@H](Cc1ccc(F)cc1)C(=O)OCCNC(=O)[C@@H](CC=C)CC(=O)N[C@H](CO)Cc1ccccc1,2.9%
CCc1ccc(NC(=O)CSc2nc(O)cc(=O)n2C2CCCC2)cc1,-4.8%
c1ccn2cc(-c3ccc4c(c3)OCO4)cc2c1,-9.3%
COc1cccc(N(CC(=O)NCC2CCCO2)C(=O)CNS(=O)(=O)c2ccccc2)c1 (stereo not drawn),8.3%
CC(=O)NNc1cc(C)nc(N)n1,-9.4%
CC(C)CCNC(=O)NC(=O)COC(=O)CCN=C1NS(=O)(=O)c2ccccc21,6.7%
Cc1cc(S(=O)(=O)N2CCCC(C)C2)ccc1-n1cnnn1 (stereo not drawn),-19.6%
O=C(N/N=C\c1ccncc1)c1ccccc1O,3.7%
CC(C)C(C(=O)NCC1CCCO1)N(C(=O)CNS(=O)(=O)c1ccccc1)C1CCCCC1 (stereo not drawn),-1.2%
CCN(CC(=O)Nc1c(F)cccc1F)C(=O)c1cccc(S(=O)(=O)N(C)c2ccccc2)c1,-2.6%
Cc1ccccc1-c1nc2scc(CCNS(=O)(=O)c3ccccc3)n2n1,12.4%
CC(C)n1c(=S)[nH]c2cc(Cl)ccc21,12.1%
COc1cc2c(cc1OC)C(C)N(Cc1ccc3c(c1)OCO3)CC2 (stereo not drawn),-3.8%
Cc1ccc(Cl)cc1NS(=O)(=O)c1ccc2c(c1)NC(=O)CCS2,5.0%
CCOc1cc(NC(=S)NCCCN(C)C)c(OCC)cc1NC(=O)c1cccs1,1.3%
O=[N+]([O-])c1ccc(S(=O)(=O)N2CCn3cccc3C2c2ccccc2F)cc1 (stereo not drawn),-4.6%
CCOc1ccc(C(=O)/C=C/Nc2ccc(S(=O)(=O)Nc3cc(C)nc(C)n3)cc2)cc1,-18.8%
COc1cc(C(=O)N/N=C/c2cn(Cc3cccc(F)c3)c3ccccc23)ccc1O,-1.0%
CC(C)(C)C1=CC(=O)C(N2CCOCC2)=CC1=O,-8.6%
COc1ccc(N2CC(C)Cn3c2nc2c3c(=O)n(CCc3ccccc3)c(=O)n2C)cc1 (stereo not drawn),0.6%
CCN(CC)c1ccc(/C=C2\C(=O)N(c3nnc(C)c(=O)[nH]3)N=C2C)cc1,15.8µM*
CC(OC(=O)CCCSc1nc2ccccc2s1)C(=O)NC(N)=O (stereo not drawn),4.9%
COc1ccc(N2CC(C(=O)N(C)CC(=O)Nc3ccc(Cl)c(C(F)(F)F)c3)CC2=O)c(OC)c1 (stereo not drawn),7.4%
Cc1cc(-c2ccc(C)c(S(=O)(=O)NC(c3cccs3)C(C)C)c2)on1 (stereo not drawn),9.0%
O=C(CCS(=O)(=O)c1ccc(Cl)cc1)Nc1ccccc1Br,4.8%
O=C(NCCCc1ccccc1)C1CCN(S(=O)(=O)c2ccc(F)cc2)CC1,12.2%
Cc1nc(N)nc(SCc2ccc([N+](=O)[O-])cc2)c1N,-19.9%
CCC(C)C(=O)Nc1ccc(S(=O)(=O)Nc2nccs2)cc1 (stereo not drawn),-22.9%
Cc1nc2ccccn2c1C(=O)NNS(=O)(=O)c1ccc(Cl)cc1,5.6%
COc1ccc(S(=O)(=O)N2CCCCC2)cc1NC(=O)CSc1ncccn1,6.6%
Cc1ccc(CCNC(=O)c2cn(C)c3ccc(S(=O)(=O)N(C)C4CCCCC4)cc3c2=O)cc1,-3.9%
COc1ccc(CNC(=O)/C=C/c2ccccc2[N+](=O)[O-])cc1,-15.8%
COc1ccc(S(=O)(=O)N2CCN(C(=O)CCSc3ccccc3)CC2)cc1,-3.9%
COc1ccccc1N1CCN(C(=O)c2cn(C)c3ccc(S(=O)(=O)N(C)C4CCCCC4)cc3c2=O)CC1,-5.4%
CNc1ccccc1C(=O)OCC(C)=O,15.8%
O=S(=O)(c1ccccc1)c1cc(O)ccc1O,16.1%
Cc1nn(-c2ccccc2)c2c1C(c1ccc(O)c(O)c1)N1C(=N2)C(Nc2ccccc2)=Nc2ccccc21 (stereo not drawn),0.1%
Cn1nnnc1SC(C(=O)Nc1cccc(C(F)(F)F)c1)c1ccccc1 (stereo not drawn),-8.5%
Cc1ccc(N(Cc2cc(=O)[nH]c3ccccc23)C(=O)C(C)C)c(C)c1,22.0%
CC(C)(C)OC(=O)NCCCC[C@H](NC(=O)c1nc[nH]c1C(=O)NCc1ccc(CNC(=O)OC(C)(C)C)cc1)C(=O)OC(C)(C)C,7.2%
COc1ccc(/C=N/N2CCOCC2)cc1COc1ccc(Cl)cc1,-13.6%
CC(OC(=O)CN1C(=O)NC2(CCCC2)C1=O)c1ccc(F)cc1 (stereo not drawn),12.5%
CC1CC(C)(C)N(C(=O)CSc2ccc(-c3ccc(F)cc3)nn2)c2ccccc21 (stereo not drawn),-16.3%
COc1ccc(-c2cc(C)no2)cc1S(=O)(=O)NC1CCC(C)CC1 (stereo not drawn),13.2%
Cc1ccccc1CS(=O)(=O)Cc1ccc(C(=O)NCCCN2CC(C)CC(C)C2)o1 (stereo not drawn),7.3%
CCCCNc1c(-c2cccc(-c3cc(C(C)=O)cs3)c2)nc2ccc(C)cn12,-15.9%
CN1CCN(CC(=O)O)CC1,-19.0%
O=C(Nc1ccc(Br)cc1)N1CCC(CN2CCCC2)CC1,15.9%
Cc1ccc(CNC(=O)Cn2ncc3c(C)n(Cc4ccc(Cl)cc4)c(C)c3c2=O)cc1,14.6%
CCN(CC)C(=O)Cc1c(OC)ccc2cc(Br)ccc12,?

Next section:
SMILES,VDR inhibitor
CC(=O)Nc1ccc(C(=O)NC2CCCC2)cc1,-8.7%
NS(=O)(=O)c1ccc(NC(=O)CCC(=O)O)cc1,9.4%
O=C(Nc1nnc(-c2ccccc2)o1)c1cccc(S(=O)(=O)N2CCOCC2)c1,-10.6%
COC(=O)C1=C(N)N(c2ccccc2F)C2=C(C(=O)CC(C)(C)C2)C1c1ccc(OC)c(OC)c1 (stereo not drawn),-13.2%
O=C(c1ccncc1)N1N=C(c2ccc(Br)cc2)CC1c1ccccc1O (stereo not drawn),-0.4%
CCOc1cccc(NC(=O)C2CC(=O)NC(=Nc3ccccc3)S2)c1 (stereo not drawn),11.5%
CN(C)CCN(C(=O)c1ccc(S(=O)(=O)N(C)C)cc1)c1nc2cc3c(cc2s1)OCCO3,-5.5%
COc1ccc(-c2cc(=O)oc3cc(OCC(C)=O)ccc23)cc1,-26.9%
N#Cc1ccccc1CN1C(=O)S/C(=C/c2cccn2-c2ccc(C(=O)O)cc2)C1=O,-13.2%
CN1CCN(C(=O)c2cc([N+](=O)[O-])ccc2Cl)CC1,0.8%
C=CCNC(=O)c1ccccc1NC(=O)COc1ccccc1,-13.3%
c1coc(-c2nc3nc4ccccc4n3nc2-c2ccco2)c1,-4.6%
Cc1ccc(/C(N)=N/OC(=O)c2ccc3ccccc3c2)cc1,-18.6%
COc1ccc(N2CCN(CC(=O)NC(=O)NCc3ccccc3)CC2)cc1,5.4%
COC(=O)CCc1sc(Nc2ccccc2)nc1-c1ccc(OC)cc1,-5.6%
C/C=C/c1ccccc1OCc1ccc(C(=O)OC)o1,-8.8%
Cn1c(-c2ccccc2)c(CCO)c2ccccc21,13.8%
COc1ccc(C(=O)CSc2cc(C)nc(SCC(=O)c3ccc(C)cc3)n2)cc1,1.6%
Cc1ccc(-c2cc(C(=O)Nc3cc(C)ccc3O)no2)cc1,6.8%
CCOc1ccccc1C(=O)Nc1ccc2nc3c(c(Nc4ccc(OC)c(OC)c4)c2c1)CCCC3,-5.3%
CCN1C(=O)c2cccc3c(Cl)ccc(c23)C1=O,-9.4%
Cn1cc(CCNC(=O)c2ccc3nc(Cc4ccccc4F)oc3c2)cn1,-1.9%
O=C(Cn1cc([N+](=O)[O-])cn1)Nc1ccn(Cc2c(F)c(F)c(F)c(F)c2F)n1,0.5%
COc1ccc2nc(C)cc(Sc3nc4ccccc4s3)c2c1,?
COc1cc(OC)c(OC)cc1CNc1nnnn1C,17.8%
CCc1ccc(-c2ccc3nnc(SC)n3n2)cc1,-0.5%
CCCCC(=O)N1CCN(c2nc(-c3ccc(F)cc3)cs2)CC1,-15.2%
CC(=O)Nc1nc(NC(=O)C(Cl)(Cl)Cl)n(-c2ccccc2)n1,-4.3%
CCCCN(C(=O)C1CCN(C(=O)c2ccccc2C)CC1)c1c(N)n(CC(C)C)c(=O)[nH]c1=O,33.6%[activator]
COCCNc1nc(-c2cccc(OC)c2)nc2ccccc12,-2.4%
S=c1[nH]nc(-c2cccs2)n1/N=C/c1c(Cl)cccc1Cl,?
O=C(Nc1ccc(N2CCN(C(=O)c3cccs3)CC2)cc1)c1ccccc1Cl,-1.8%
O=C(c1cccnc1)N(Cc1ccccc1)C1(C(=O)Nc2ccccc2)CCCCC1,13.2%
COc1ccc(C(C(=O)OC(C)CN(C)C)c2ccccc2)cc1 (stereo not drawn),6.0%
COc1ccccc1N(Cc1cc2ccc(C)cc2[nH]c1=O)C(C)=O,-3.5%
COc1ccc(NS(=O)(=O)c2cc3[nH]c(=O)c(=O)[nH]c3cc2C)cc1Cl,6.0%
Cc1ccc(/C=C2/NC(=O)[C@H](C)NC2=O)cc1,-14.7%
Cc1ccc(NC(=O)c2cc(S(=O)(=O)N3CCC4(CC3)OCCO4)ccc2F)cc1Cl,13.0%
COc1cc(C2(c3ccc(O)c(OC)c3)C(=O)Nc3c(C)cc(Br)cc32)ccc1O,-1.8%
CN1CCN(/C(=N\S(=O)(=O)c2ccc(F)cc2)c2ccccc2)CC1,-3.9%
CCO[C@H]1OC(C(=O)NCc2nc3ccccc3[nH]2)=C[C@@H](C2CC2)[C@@H]1CCCO,-8.2%
Cc1ccc(CNC(=O)CCS(=O)(=O)c2ccc(Br)cc2)cc1,-15.3%
N#Cc1cccnc1Nc1ccc(Cl)cc1,0.2%
CCn1c(CNC(=O)COc2ccc(C(C)C)cc2)nnc1SCC(=O)Nc1cc(F)ccc1C,5.7%
CNC(=O)[C@@H]1C[C@H]1[C@@H](NC(=O)CNC(=O)OCc1ccccc1)c1ccccc1,1.3%
O=c1oc2ccccc2cc1-c1csc(Cc2nc(-c3ccc(Cl)cc3)cs2)n1,-22.3%
N=C1C(c2nc3ccccc3s2)=C(O)CN1NC(=O)c1c[nH]c2ccccc12,4.0%
Cc1ccc(C)c(NC(=O)c2cnn(-c3cccc(F)c3)c2C2CCN(C(=O)OC(C)(C)C)CC2)c1,5.2%
O=Cc1ccc(-n2cc(C=O)c3ccccc32)cc1,-11.9%
COc1ccc(O)c(/C=N/c2nc3ccccc3n2C)c1,-3.1%

An excerpt from above in order of length of the SMILES, rising:
SMILES,VDR inhibitor
N#Cc1cccnc1Nc1ccc(Cl)cc1,0.2%
O=Cc1ccc(-n2cc(C=O)c3ccccc32)cc1,-11.9%
COc1ccc(O)c(/C=N/c2nc3ccccc3n2C)c1,-3.1%
O=c1oc2ccccc2cc1-c1csc(Cc2nc(-c3ccc(Cl)cc3)cs2)n1,-22.3%
CCn1c(CNC(=O)COc2ccc(C(C)C)cc2)nnc1SCC(=O)Nc1cc(F)ccc1C,5.7%
Cc1ccc(C)c(NC(=O)c2cnn(-c3cccc(F)c3)c2C2CCN(C(=O)OC(C)(C)C)CC2)c1,5.2%

Further compounds follow:
SMILES,VDR inhibitor
Cc1cc(Cn2ccnc2)c(C)cc1Cn1ccnc1,7.1%
O=C(C1CCCN(S(=O)(=O)c2cnc[nH]2)C1)N(CCc1ccccc1)Cc1ccccc1 (stereo not drawn),-16.4%
COc1ccc(-c2c(C#N)c(N)nc3c2CCCC3)cc1OC,-3.8%
CCc1cc(C(=O)N=Nc2c(O)[nH]c3ccc([N+](=O)[O-])cc23)c2ccccc2n1,7.4%
Nc1nc(SCCO)[nH]c(=O)c1NC(=O)c1ccco1,-8.1%
Cc1[nH]c2ccccc2c1/C=N/Nc1nc(N2CCCCC2)nc(N2CCCCC2)n1,-16.6%
CCCN(CC(=O)Nc1c(C)cccc1CC)C(=O)SCC,1.5%
CCOc1ccc(NC(=O)C(c2ccccn2)N(C(=O)CCl)c2ccc(F)cc2)cc1 (stereo not drawn),?
COc1ccc(CCC(=O)Nc2ccc(OC)c(S(=O)(=O)N3CCCCC3)c2)cc1OC,1.0%
COc1cc(NS(=O)(=O)c2ccc(Cl)cc2)c(C(=O)O)cc1OC,6.2%
O=C1C2CC=C(Cl)CC2C(=O)N1CN(Cc1ccco1)CN1C(=O)C2CC=C(Cl)CC2C1=O (stereo not drawn),3.2%
CCc1n[nH]c(=S)n1/N=C/c1c[nH]c2ccc(Br)cc12,-13.7%
NC1C(O)OC(CO)[C@@H](O)[C@@H]1O[C@H]1O[C@@H](C(=O)O)C(O)C(O)C1O (stereo partly drawn),-16.2%
N#Cc1c(-c2ccco2)cc(-c2ccccc2)[nH]c1=O,-3.0%
Cc1cc(SCc2cc(=O)[nH]c3ccccc23)nc2ccccc12,14.0%
CC(C)CC(NC(=O)OC(C)(C)C)C(=O)NC(C(=O)N1CCCC1C(N)=O)C(C)C (stereo not drawn),9.6%
Cc1ccc(S(=O)(=O)C2(C(=O)NC3CCCCC3C)CC2)cc1 (stereo not drawn),3.9%
